BJeLR lethal – BJeLR cell viability loss; BJeLR (HRASV12) viability, CellTiter-Glo ATP luminescence, 48 h; reference of the scale not given here; inhibition, % (concentration not given with the values); 0.17% of 300,000 active; AID 1554;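 active = replicate mean above 50%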;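 also: 50 nL library stock added to about 25 µL; numbers are from one replicate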
Mtb hypoxia inh – reduces hypoxia-regulated biosensor signal in M. tuberculosis; fluorescence inhibition, % (concentration not given with the values); M. tuberculosis hypoxia-regulated fluorescent reporter, fluorescence; 0.1% of 300,000 active;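 active = 35 to 45% if threefold the growth effect, above 45% if 1.5-fold the growth effect; inactive = the rest, general growth blockers included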;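 also: wells of about 50 µL received 100 nL stock; 0% = vehicle wells and 100% = reference inhibitor wells; whole bacteria with a GFP reporter of the hypoxia response; strong numbers were not always called active; many hits fall short of the cut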
Sa RN4220 lethal – kills Staphylococcus aureus RN4220; S. aureus RN4220 growth, OD600, 16 h; inhibition, % (concentration not given with the values); 0.33% of 330,000 active; AID 1259311;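 active = z-score of -3 or lower and OD600 up to 0.18 on both plates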;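 also: plate controls were untreated cells for no effect and reference antibiotic for full effect; stock transfer was 100 nL into about 80 µL; one replicate is shown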
PrP UTR inh – suppresses PrP 5' UTR mRNA reporter expression; cell-based PrP 5' UTR mRNA reporter, plate reader; inhibition, % (concentration not given with the values); 0.35% of 340,000 active;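 active = every replicate at 50% or more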;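 also: 0 = median of the neutral control wells; tested in H4 reporter cells; numbers are from one replicate; inactives centre near -14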
ugtP null kill – compounds lethal to S. aureus RN4220 ugtP deletion mutant. OD600 growth, 16 h; some inactives read as strong as hits. growth inhibition, % (no concentration beside the values). 0.54% of 330,000 active. AID 1259309;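 active = z-score under -3 and OD600 up to 0.15 on both plates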;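 also: plate controls were untreated wells for no effect and antibiotic for full effect; wells of about 80 µL received 100 nL stock; the first replicate is given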
Bead autofluor – compound fluorescence in toxin protease inhibitor counterscreen | 3.1% of 360,000 active | compound autofluorescence counterscreen, microsphere flow cytometry; active compounds read high | AID 624483 | fluorescence intensity (concentration not given with the values);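 active = at least 3 SD above the mean of all compounds, about 16000 in these data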;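 also: 100 nL of 1 mM stock went into each well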
Mtb hypoxia inh growth – recorded beside Mtb hypoxia inh, whose call it bears; growth inhibition, %; measured here: M. tuberculosis growth (absorbance);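 0% = vehicle and 100% = reference antibiotic; read after six days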
Starred values were filed as active, the others as inactive; . = not tested or not shown.

Values in the order: Bead autofluor, Mtb hypoxia inh, ugtP null kill, BJeLR lethal, Mtb hypoxia inh growth, Sa RN4220 lethal, PrP UTR inh
Fc1ccc(-n2nnnc2-c2ccccc2Cl)cc1
    4134, 13, -4, 6, 11, 5.7, -22
Clc1ccc(-c2noc(CSc3nnc(Cc4cccs4)n3-c3ccccc3)n2)cc1
    5822, 1, 14, -9, -2, 4.2, -23
CCCCN(CC)CCNC(=O)c1cn(-c2ccc(Cl)cc2)c(=O)c2ccccc12
    4172, -4, 8, -4, -7, -1.3, -38
COc1ccc(-c2nc(C#N)c(N3CCC(C)CC3)o2)cc1
    3526, 3, 15, -1, 1, 2.2, 0
COc1ccc(-c2nc(C#N)c(NCCCn3ccnc3)o2)cc1OC
    9514, -2, -9, 11, 2, 4.2, -36
CCc1cccc(C)c1NC(=O)c1cccnc1
    3027, 7, 13, -9, 7, 4.9, -33
N#CCSc1nnc2c(Cl)cc(Cl)cn12
    13295, 12, 6, -1, 8, 3.1, -23
CCc1cc(SC#N)cc(C)c1NC(=O)CCl
    2097, 10, 14, -6, 7, 16, -8
CCOC(=O)C1=C(C)N(C)C(=S)NC1c1ccc(Cl)cc1Cl (stereo not drawn)
    2308, ., -18, -4, ., 5.3, 8
O=S1(=O)CC(O)C(N(CCO)C(=S)Nc2ccccc2)C1 (stereo not drawn)
    4458, 3, 12, -2, -10, 5.2, -12
CCOC(=O)c1cnc2c(Cl)cc(Cl)cc2c1NCCOCCO
    10088, 11, 0, -1, 5, 3.0, -1
O=C(COC(=O)c1ccc(OC(F)F)cc1)NCCNC(=O)COC(=O)c1ccc(OC(F)F)cc1
    6101, -7, -3, -8, 3, -1.5, -19
CCC(OC(C)=O)c1cc2c(cc1[N+](=O)[O-])OCCO2 (stereo not drawn)
    2195, 1, -4, 6, -1, 1.2, -3
COc1ccc(NC(=O)C2C3C=CC4(CN(Cc5cccnc5)C(=O)C24)O3)c(OC)c1 (stereo not drawn)
    4373, ., -2, -1, ., 4.3, -2
O=C(CN1C(=O)COc2ccc(S(=O)(=O)N3CCCC3)cc21)NCc1ccccn1
    3829, 2, 6, -7, 1, -0.2, -22
CC1=C(C(=O)OCc2ccccc2)C(c2ccc([N+](=O)[O-])cc2)NC(=O)N1 (stereo not drawn)
    3793, -10, 10, 28, 4, 2.5, -46
CCCCn1c(SCc2cccc([N+](=O)[O-])c2)nc2ccsc2c1=O
    2134, -2, -16, -10, 8, -9.2, -12
COc1cccc(NC(=O)c2ccc(-n3cccn3)nc2)c1
    4386, -13, -3, -9, -10, -6.0, -27
COc1ccccc1-n1nnnc1SCC(=O)NCC1(N2CCOCC2)CCCCC1
    4181, 1, 0, ., -2, 2.1, -5
O=C(Cn1nnc(-c2ccccc2Cl)n1)NN=Cc1ccc2c(c1)OCO2
    ., 1, -10, ., 11, -1.7, .
Cc1nc(SCC(=O)NCc2ccco2)c2oc3ccccc3c2n1
    3307, 5, -20, 15, -1, 9.6, 1
O=C(CN1C(=O)c2cccc3cccc1c23)NCc1ccccn1
    4001, 9, 1, -6, 9, 1.5, 14
COc1cc(-c2csc(CCn3nc(C)cc3C)n2)cc(OC)c1OC
    3728, 10, 1, -1, 11, 3.1, -18
COC(=O)c1ccc(Cn2cnc3c(N)ncnc32)cc1
    2928, 0, 0, ., 3, 0.2, -2
Cc1c(N=Cc2ccc(Cl)o2)c(=O)n(-c2ccccc2)n1C
    11495, 2, 6, -12, 3, 5.9, -8
CSc1nc(N)nc(SCC(=O)C23CC4CC(CC(C4)C2)C3)c1C#N
    19688*, 3, -34, -4, 11, -3.8, 6
C#CC1(OC(=O)c2ccccc2)CC(C)N(C)CC1C (stereo not drawn)
    4013, 6, 3, 8, 9, 3.3, -16
CCCCn1c(N)c(N(CCOC)C(=O)c2oc3ccc(OCC)cc3c2C)c(=O)[nH]c1=O
    7394, 5, 2, -1, -5, 2.1, -12
CCOc1ccccc1NC(=O)Cn1[nH]c(=O)c2ccccc2c1=O
    4690, -3, 4, 7, 3, -0.6, -16
CN(C)S(=O)(=O)c1cccc(C(=O)OCC(=O)NCc2ccccc2)c1
    10394, 3, -4, 6, 1, 4.6, -16
O=C(Nc1cccc(S(=O)(=O)NC2=NCCC2)c1)C1CC(=O)N(c2ccc3c(c2)OCCO3)C1 (stereo not drawn)
    3354, 10, 6, -8, -7, 6.6, 9
CCCc1nc2ccc([N+](=O)[O-])cc2[nH]1
    2646, 1, -4, -6, 9, 1.9, -34
CC(C)(C)OC(=O)N1CCC[C@H]1c1nnc(SCc2ccccc2Cl)o1
    2732, ., 8, 1, ., 8.6, -17
Cc1ccc(-c2nc(N)sc2-c2ccccc2)cc1C
    2145, 16, 96*, -3, 2, -12, -90
COC(=O)C1=Cc2cc(OC)cc([N+](=O)[O-])c2OC1N1CCOCC1 (stereo not drawn)
    3447, 17, 2, -11, 8, 3.8, -14
COc1ccc(CC(=O)OCC(=O)NCc2ccco2)cc1OC
    4828, -8, 3, -6, 0, 2.3, -8
Cc1ccc(S(=O)(=O)N2CCN(C(=O)COC(=O)/C=C/c3ccc(C(F)(F)F)cc3)CC2)c(C)c1
    3739, 5, 2, ., 40, 3.5, 2
O=C1OC(Nc2ncccn2)c2ccccc21 (stereo not drawn)
    9583, 5, -1, -8, -3, 19, -21
COc1ccc(OCC(=O)Nc2ccc(Cl)cc2C(=O)c2ccccc2)cc1
    3375, ., 6, 8, ., 4.3, -2
CN1CCc2c(sc(N=Cc3c[nH]c4ccccc34)c2C(N)=O)C1
    ., -1, 10, ., 1, 5.6, .
Cc1ccccc1C(=O)NC(CC(C)C)C(=O)Nc1cccc(S(=O)(=O)N(C)C)c1 (stereo not drawn)
    3437, -4, 0, -3, -4, -1.4, -37
Cc1ccc(C2C3=C(CC(C)(C)CC3=O)NC3=C2C(=O)CC(C)(C)C3)o1
    3133, 0, 5, 0, 15, 22, 1
OC(COCc1ccc2c(c1)OCO2)CN1CCC(Cc2ccccc2)CC1 (stereo not drawn)
    5790, -8, 5, -6, 2, 1.4, -45
CC(=NNC(=O)CCC(=O)NCc1ccccc1)c1ccco1
    ., 6, 4, ., 8, 2.4, .
Cc1ccc(C)c(N2CCN(C(=O)c3cc4c(C)nc5ccccc5c4o3)CC2)c1
    5411, 0, -15, 7, 10, -2.5, -5
Cc1nn(Cc2ccccc2)c(Cl)c1C(=O)OCc1nnc(-c2ccccc2)o1
    3567, 6, -10, -4, 4, -1.5, -38
O=S(=O)(c1ccc(Br)c2nsnc12)N1CCOCC1
    2135, -8, -2, 10, 7, -0.3, -24
COc1cc(C(=O)N2CCN(c3cccc(C)c3C)CC2)ccc1OCC(=O)N1CCOCC1
    4484, 2, 4, ., 4, 4.2, -23
O=c1[nH]n(-c2ncnc3c2cnn3-c2ccccc2)c(=O)c2ccccc12
    3705, 11, 2, -5, 7, 1.6, -20
O=C(NC1CCCCC1)n1c(=O)oc2ccccc21
    23174*, -3, -2, -14, 3, -0.5, -4
CN(C)S(=O)(=O)c1cc(NC(=O)COC(=O)Cc2ccccc2)ccc1Cl
    2386, 4, -3, -1, 12, -2.1, -14
Cc1ccc(NN=C2C(=O)OC(C)(C)OC2=O)c(C)c1
    2435, 4, 6, -16, 5, 12, -56
O=C(NCCCN1CCN(c2ccccc2F)CC1)Nc1ccc(F)cc1
    2229, ., -4, 14, ., -2.1, -3
COc1ccc(-c2csc(Cc3nnc4n3CCCCC4)n2)cc1OC
    3078, 1, -4, 1, 4, 4.6, -4
Cc1ccc(NC(=O)Nc2cccnc2)cc1
    3794, 6, 3, -7, -2, 3.6, -46
CCCN1CCN(CCCNC(=O)c2ccc(CS(=O)c3ccc(OC)cc3)o2)CC1 (stereo not drawn)
    5470, 0, -2, 7, -9, 0.0, 1
COc1ccc(-c2cnc3nc[nH]c(=O)c3n2)cc1
    5062, ., -7, -7, ., 5.4, 7
CCOC(=O)CC(=O)CSc1ccc2nnc(-c3ccccc3)n2n1
    15687, 3, 5, -21, 5, 4.8, -11
O=c1oc(-c2cccnc2)nc2ccccc12
    4472, ., -10, -3, ., 0.0, -22
CC(=O)C(C(C)=O)C1(O)C(=O)c2ccccc2C1=O
    9971, 6, 5, -5, 9, 0.7, -10

Further entries.
Values in the order: Bead autofluor, Mtb hypoxia inh, ugtP null kill, BJeLR lethal, Mtb hypoxia inh growth, Sa RN4220 lethal, PrP UTR inh
CC(C)N1CCN(c2ccc(O)cc2)CC1
    2499, 12, 0, -3, 0, 4.1, -12
Cc1cccc(N2CCN(C(=O)CCCSc3nc4ccccc4[nH]3)CC2)c1C
    10661, -15, 3, 5, -6, 8.9, 0
O=C(N/C(=C/c1ccco1)C(=O)N1CCCCCC1)c1ccccc1
    3152, 2, 3, -6, -8, 1.3, -23
C=CCn1c(SCC(=O)NC(=O)NC)nnc1C1CCCCC1
    4050, 10, 0, 9, 8, -0.2, -11
COCCN(C(=O)CSc1nnc(-c2ccc(Cl)cc2)o1)c1c(N)n(CC(C)C)c(=O)[nH]c1=O
    6143, -3, 4, -10, 7, -6.1, -19
CCCCCCCCn1cnc2c(N)c(C)c(C)cc21
    10873, 5, -24, -1, 7, 11, -49
COc1cc(C(=O)N/N=C/c2ccc(OC(=O)c3cccc(C)c3)c(OC)c2)ccc1O
    5093, ., ., -2, ., ., -8
CCC/C=N/NC(=O)c1cc(-c2ccccc2)nc2ccccc12
    1945, ., ., 17, ., ., 1

Among those listed so far, 9 have a furan ring, fused or not.
Values in the order: Bead autofluor, Mtb hypoxia inh, ugtP null kill, BJeLR lethal, Mtb hypoxia inh growth, Sa RN4220 lethal, PrP UTR inh
Cc1nc(SCC(=O)NCc2ccco2)c2oc3ccccc3c2n1
    3307, 5, -20, 15, -1, 9.6, 1
Cc1c(N=Cc2ccc(Cl)o2)c(=O)n(-c2ccccc2)n1C
    11495, 2, 6, -12, 3, 5.9, -8
CCCCn1c(N)c(N(CCOC)C(=O)c2oc3ccc(OCC)cc3c2C)c(=O)[nH]c1=O
    7394, 5, 2, -1, -5, 2.1, -12
COc1ccc(CC(=O)OCC(=O)NCc2ccco2)cc1OC
    4828, -8, 3, -6, 0, 2.3, -8
Cc1ccc(C2C3=C(CC(C)(C)CC3=O)NC3=C2C(=O)CC(C)(C)C3)o1
    3133, 0, 5, 0, 15, 22, 1
CC(=NNC(=O)CCC(=O)NCc1ccccc1)c1ccco1
    ., 6, 4, ., 8, 2.4, .
Cc1ccc(C)c(N2CCN(C(=O)c3cc4c(C)nc5ccccc5c4o3)CC2)c1
    5411, 0, -15, 7, 10, -2.5, -5
CCCN1CCN(CCCNC(=O)c2ccc(CS(=O)c3ccc(OC)cc3)o2)CC1 (stereo not drawn)
    5470, 0, -2, 7, -9, 0.0, 1
O=C(N/C(=C/c1ccco1)C(=O)N1CCCCCC1)c1ccccc1
    3152, 2, 3, -6, -8, 1.3, -23
